gsp agonist: qHTS for Agonist of gsp, the Etiologic Mutation Responsible for Fibrous Dysplasia/McCune-Albright Syndrome: qHTS. gsp mutant cells, cAMP HTRF, 30 min; control for the full effect not named in the record. Potency, µM (titrated, usually from 76.9 µM), for inactives: top-dose activation (cAMP increase), usual class: activators. actives 0.13% (n = 340,000); active = well fitted activation curve with a large enough effect; inconclusive = small, poorly fitted or top-dose-only effect, or another doubt; inactive = no such curve, though single readings can be large or run the other way; cell line not stated here;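 further: phosphodiesterase inhibitor Ro 20-1724 added with compounds to block cAMP breakdown; potency means the concentration at half of the fitted maximal effect; nearly all actives have a fitted effect of over 60% in size; about a fifth of the inactives were tested at one dose only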
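Cells stably selected in G418 were plated at 2000/well, grown 16-24 hr, then given compounds in DMSO with the PDE inhibitor […] (300 uM solution added) for 30 min at 37C; cAMP was read by HTRF.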
CtBP-E1A blk: qHTS Assay for Inhibitors of the CtBP/E1A Interaction; CtBP / adenovirus E1A interaction (AlphaScreen); AlphaScreen GST-E1A/His-CtBP binding, 1536-well; hits give low values; control for the full effect not named in the record; activity change, % (concentration not given with the values); actives 0.49% (n = 340,000); AID 651724, 2012; in the data active means activity change below about -65%; inconclusive means about -30% to -65%; inactive means above about -30%; further: on the % scale 0 is the no-effect control and ±100 the full control effect
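Protein mix (5X: 125 nM each GST-E1A, His-CtBP) was incubated with pinned compound 2 h at 37 deg C in dark, in 50 mM Tris pH 8.0 buffer with 300 mM NaCl. Glutathione donor and nickel acceptor beads followed; AlphaScreen signal read after 1 h.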
D2 ag: Beta-Arrestin HTS for Positive Allosteric Modulators of the Human D2 Dopamine Receptor: Agonists; actives 0.084% (n = 360,000); DiscoveRx PathHunter D2 beta-arrestin, luminescence, 90 min; 100% = 57 uM dopamine signal; activation, % (test concentration not listed); D(2) dopamine receptor (Homo sapiens), P14416; AID 624465, 2012; in the data active = activation above about 40%; inconclusive = about 15% to 40%; inactive = below about 15%; further: compound concentration not given in the record; the text of the record calls up to 30% inactive
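DiscoveRx PathHunter D2 beta-arrestin cells (2,100/well) attached overnight, then compound-stimulated 90 min at 37 C in HBSS/10 mM HEPES/0.1% Tween-20 buffer; beta-galactosidase complementation read by luminescence after 1 h at ambient temperature. Dopamine 57 uM final (EC100) as control.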
gsp antag: qHTS for Antagonists of gsp, the Etiologic Mutation Responsible for Fibrous Dysplasia/McCune-Albright Syndrome: qHTS. gsp-mutant cells, cAMP HTRF, 30 min; control for the full effect not named in the record. Potency, µM (series often up to 76.9 µM), for the others: top-dose activity change, negative = inhibition, usual class: inhibitors. actives 0.4% (n = 340,000). AID 624288, 2012; active = falling curve of any shape with a large fitted effect; inconclusive = falling curve, mostly with a smaller effect; inactive = flat or rising curve; cell line not stated here;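 further: intracellular cAMP measured with PDE inhibitor Ro 20-1724 present during compound exposure; potency means the concentration at half of the fitted maximal effect; on the % scale 0 is the no-effect control and ±100 the full control effect; nearly all actives have a fitted effect of over 65% in size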
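HTRF cAMP read-out (cAMP-d2 plus anti-cAMP antibody-K in lysis buffer, 30 min RT). Before lysis, cells are exposed to compounds with […] for 30 min at 37C in DPBS containing Ca/Mg, BSA and Tween 20.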
D2 PAM: Beta-Arrestin HTS for Positive Allosteric Modulators of the Human D2 Dopamine Receptor: Potentiators; D(2) dopamine receptor (Homo sapiens), P14416; DiscoveRx D2 beta-arrestin cells, luminescence, 90 min; 100% = 57 uM dopamine signal; potentiation, % (concentration not given with the values); actives 0.23% (n = 360,000); AID 624464, 2012; active = potentiation of 50% or more; inconclusive = 30% to 50%; inactive = 30% or less;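 further: compound concentration not given in the record; tested on top of an EC20 dose of dopamine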
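PathHunter beta-arrestin assay in DiscoveRx D2 cells. Compounds were added with an EC20 of dopamine (50 nM final) for 90 min at 37 deg C. Luminescence was read 1 h after detection reagent, with 57 uM dopamine as the EC100 control.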
Six1-Eya2 inh: qHTS Assay for Inhibitors of the Six1/Eya2 Interaction. AlphaScreen GST-Six1/His-Eya2 binding, biochemical; hits give low values; control for the full effect not named in the record. activity change, % (test concentration not listed). actives 0.56% (n = 360,000). Homeobox protein SIX1 (Homo sapiens) + Protein phosphatase EYA2 (Homo sapiens), …. AID 651725, 2012; in the data active = activity change below about -65%; inconclusive = about -30% to -65%; inactive = above about -30%; further: on the % scale 0 is the no-effect control and ±100 the full control effect; compound concentration not given in the record
Target sequence (O00167 whole entry, looked up): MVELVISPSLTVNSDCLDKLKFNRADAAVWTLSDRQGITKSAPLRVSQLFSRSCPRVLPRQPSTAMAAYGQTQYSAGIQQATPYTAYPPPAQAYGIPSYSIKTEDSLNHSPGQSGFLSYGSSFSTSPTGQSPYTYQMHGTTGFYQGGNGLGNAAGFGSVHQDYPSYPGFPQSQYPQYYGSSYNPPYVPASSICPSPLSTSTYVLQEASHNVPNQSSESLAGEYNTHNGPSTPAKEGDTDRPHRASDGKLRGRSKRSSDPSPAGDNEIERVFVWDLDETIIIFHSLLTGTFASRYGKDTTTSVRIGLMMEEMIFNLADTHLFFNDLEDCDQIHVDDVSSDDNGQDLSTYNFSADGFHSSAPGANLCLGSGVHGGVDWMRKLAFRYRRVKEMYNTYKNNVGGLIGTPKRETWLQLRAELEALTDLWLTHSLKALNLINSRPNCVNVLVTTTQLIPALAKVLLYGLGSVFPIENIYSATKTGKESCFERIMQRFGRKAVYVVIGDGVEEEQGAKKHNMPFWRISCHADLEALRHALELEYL
Target sequence (Q15475 whole entry, looked up): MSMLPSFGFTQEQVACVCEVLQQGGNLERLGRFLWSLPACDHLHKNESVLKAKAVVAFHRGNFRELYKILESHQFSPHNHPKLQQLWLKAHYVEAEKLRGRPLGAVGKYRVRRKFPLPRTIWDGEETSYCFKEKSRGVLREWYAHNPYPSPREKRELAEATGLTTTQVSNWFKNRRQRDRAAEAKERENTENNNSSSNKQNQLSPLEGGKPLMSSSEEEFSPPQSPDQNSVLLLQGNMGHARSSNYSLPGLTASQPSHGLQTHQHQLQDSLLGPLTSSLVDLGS
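GST-Six1 + His-Eya2 (5X stock: 250/500 nM); Tris pH 8.0, 300 mM NaCl, 0.05% BSA, 0.02% Tween 20; GSH donor/Ni acceptor beads; 1 h 37 °C dark; AlphaScreen readout.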
Numbers without * were called inactive; ? = inconclusive; . = no result given; [ ] = dose if it differs, or a comment.

Structure	gsp agonist	CtBP-E1A blk	D2 ag	gsp antag	D2 PAM	Six1-Eya2 inh
CCOC(=O)c1c(NC(=O)C2CC(Cl)=CCC2C(=O)O)sc2c1CCCCC2 (configuration not stated)	?	5.2	-1.3	?	-2.4	-7.0
COCc1c(Br)c(C)nc(OCC(=O)N/N=C/c2ccco2)c1C#N	?	1.1	-5.4	-3.4%	2.5	-6.7
O=C(Nc1ccc(Cl)cc1)c1cncs1	6.5%[15.4 µM]	2.0	-4.1	50.1µM*	-4.5	-15.6
Cc1cc(OCC(=O)NNC(=S)NC(=O)c2ccc(Br)o2)ccc1Cl	0.5%	-7.3	-2.3	-10.5%	-3.3	-6.9
O=C(Cn1cnc2c(nnn2Cc2ccc(F)cc2)c1=O)NCc1ccc(F)cc1	1.0%[15.4 µM]	4.3	-0.9	0.7%	-5.6	0.4
COc1ccccc1-c1nc(S(=O)(=O)c2ccc(Cl)cc2)c(N(C)C)o1	-19.6%	6.6	-0.8	-2.2%	-4.5	1.7
NC(=O)c1ccsc1NC(=O)COC(=O)C1CC2CCCC(C1)C2=O (configuration not stated)	-10.3%[15.4 µM]	-11.5	-0.4	-3.5%	-3.3	0.0
COc1cccc(C=O)c1OCCCOc1cccc2cccnc12	12.6%	.	-0.8	6.1%	-1.7	-2.8
O=C(Nc1ccc(Br)cc1)c1cc2ccccn2n1	-148.8%[inhibitor]	1.6	3.5	-11.2%	-15.4	0.3
COc1cccc(NC(=O)n2ncc3c(C)cccc32)c1	10.7%	10.2	10.8	9.1%	-4.1	8.9
COc1ccccc1N1CCN(C(=O)CCS(=O)(=O)c2ccc3c(c2)NC(=O)C(C)S3)CC1 (configuration not stated)	-30.5%[inhibitor]	.	2.2	-26.1%	-13.0	-2.3
CCN(CC(=O)Nc1ccc(NC(C)=O)cc1)S(=O)(=O)/C=C/c1ccccc1	3.2%	-6.6	2.3	-7.5%	-4.5	0.7
Cc1ccc2ccc(C#N)cc2c1O	-2.6%	-4.3	1.4	.	-6.2	2.3
CC1CCCN(C(=O)Cc2cccc3ccccc23)C1 (configuration not stated)	14.5%[15.4 µM]	-1.6	-1.1	-2.0%	-9.4	-19.5
Cc1ccc(-c2nc(SC(C)C(=O)c3c(N)n(C)c(=O)n(C)c3=O)n[nH]2)cc1 (configuration not stated)	4.7%[15.4 µM]	-3.0	-5.3	0.0%	-9.9	-11.2
CCOc1ccc(N(CC)C(=O)COc2cc(=O)n(CC)c3ccccc23)cc1	7.9%	-3.0	-0.8	-29.0%	-6.7	2.1
COc1ccc(NC(=O)Cn2nnc(C(=O)NCc3ccc4c(c3)OCO4)c2N)c(OC)c1	24.1%	3.5	10.4	0.4%	-4.7	1.7
Cc1onc(-c2ccccc2)c1C(=O)Nc1ccc(S(=O)(=O)Nc2nccs2)cc1	4.9%	-7.9	1.2	-8.9%	-7.8	3.1
COc1ccccc1-n1c(=O)[nH]c2c(C(N)=O)nc(-c3cccnc3)nc21	10.3%	-17.3	-3.9	-2.6%	-9.4	-10.7
Cc1cc(C)c(C)c(S(=O)(=O)N2CCNC(=O)C2)c1C	-78.3%[inhibitor]	0.0	-3.6	.	-10.1	4.6
CC1CN(CC(=O)NC(C)c2ccccc2)CC(C)O1 (configuration not stated)	-30.2%[inhibitor]	.	2.8	2.6%	0.9	13.9
Cc1ccnc(N2CCC(C(=O)NNC(=O)COc3cccc4ccccc34)CC2)n1	-65.2%[inhibitor]	0.8	-5.5	8.3%	-6.2	4.6
O=C(CCCN1C(=O)/C(=C/c2cccs2)SC1=S)NNC(=O)c1ccc(F)cc1	20.6%	36.9	-4.4	-12.5%	-2.7	22.1
COc1cccc(-n2c(SCC(=O)NCCc3ccccc3)nnc2-c2ccoc2C)c1	1.1%	-4.4	-1.7	-4.0%	-11.1	-9.7
CC(NC(=O)COC(=O)C1CSC2(C)CCC(=O)N12)C12CC3CC(CC(C3)C1)C2 (configuration not stated)	-16.7%[15.4 µM]	-5.2	-2.7	-7.7%	-27.5	3.8
Cn1c(=O)[nH]c(=O)c2c1[nH]c(=S)n2CCCc1ccccc1	6.4%	-14.3	-1.4	1.2%	-7.3	2.7
O=C(CSc1ccc(-c2cccs2)nn1)N1CCCCCC1	21.5%	0.4	1.4	4.5%	-1.5	-7.2
Cc1cc(C)cc(C(=O)NC(CC(N)=O)c2ccc(N3CCCCCC3)c([N+](=O)[O-])c2)c1 (configuration not stated)	.	-5.2	-6.0	-4.3%	-24.2	-2.6
CCOC(=O)C1(CC2CC2)CCN(C(=O)c2ocnc2C)CC1	12.7%	0.0	-3.0	10.5%	-8.8	1.0
S=c1sc2c(Cl)ncnc2n1-c1ccccc1	?	.	-2.8	16.9%	-17.9	?
CN(C(=O)c1ccccc1-c1ncc[nH]1)C1CCCN(Cc2ccccc2F)C1 (configuration not stated)	1.6%	0.1	-2.7	5.5%	-5.0	0.7
CSc1nnc(C(C)(C)C)c(=O)n1/N=C/c1ccc(Cl)cc1	-5.4%[15.4 µM]	-0.2	-2.0	13.1%	0.0	-0.8
CCc1nc(SCc2ccc(C(=O)OC)o2)n[nH]1	2.3%	-16.7	-7.5	10.0%	4.8	9.1
Cc1ccc(S(=O)(=O)CC(=O)Nc2ccc(S(=O)(=O)Nc3ccccn3)cc2)cc1	-6.5%	6.3	-1.1	3.2%	-2.8	-3.1
C[C@H](O)[C@@H]1C(=O)N2CCc3c([nH]c4ccccc34)[C@@H]2C[C@@H]1N(C)C(=O)c1cc(Cl)cc(Cl)c1	.	-6.1	6.7	.	6.0	-16.5
Cc1noc(C)c1COc1ccc(C(=O)Nc2ccccn2)cc1	?	6.7	-2.0	1.7%	-12.6	-0.7
Cc1ccc(Oc2ncccc2CO)cc1	-0.2%[15.4 µM]	-15.2	-3.7	3.2%	1.2	-0.6
Cn1c(S(=O)(=O)O)nc2ccccc21	1.2%[15.4 µM]	-8.7	-2.6	4.7%	-4.0	3.6
CCOC(=O)c1c(NC(=O)COC(=O)CCOc2ccc(C)cc2)sc(C(=O)N(C)C)c1C	-37.0%[inhibitor]	-2.3	-0.5	-7.6%	-12.3	-11.6
Cc1ccc(C(=O)N2[C@@H]3CN(C)C(=O)[C@@]2(C)[C@H]2C(=O)N(Cc4ccccc4)C(=O)[C@@H]32)cc1	41.4%	3.8	-2.2	5.4%	-4.5	-3.5
Cc1nc(C(C)NC(=O)CCc2nnc(-c3ccsc3)o2)cs1 (configuration not stated)	-9.8%	.	-1.3	8.6%	-3.1	2.0
CCOC(=O)C(CC)/C(C)=N\NC(=O)c1cccc(C)c1 (configuration not stated)	-0.4%	-6.5	-3.3	9.5%	-10.0	1.6
O=C(COC(=O)c1cc(=O)[nH]c2ccccc12)Nc1ccc(F)cc1	2.1%	0.5	2.2	16.8%	2.0	-4.6
Cc1ccc(-c2nn(-c3ccc(F)cc3)cc2C(=O)NC2CCC(O)CC2)cc1 (configuration not stated)	-6.5%	7.7	-3.5	6.0%	-5.6	-3.8
CCOC(=O)C1=CCC2C(=O)N(C)C(=O)C12 (configuration not stated)	.	0.1	-5.3	.	-3.1	2.6
Cc1csc(/N=C/N(C)C)c1C#N	13.3%[15.4 µM]	2.8	-4.3	4.6%	-2.9	-0.3
O=C(COc1ccccc1)Nc1nnc(S(=O)(=O)Nc2ccccc2)s1	29.8%	2.0	-30.1	-19.7%	-4.4	-5.9
CCCOc1ccc(NC(=O)OC2CCN(C)CC2)cc1	?	8.4	-5.2	10.2%	-20.4	0.0
C[C@H](NC(=O)c1nc[nH]c1C(=O)N[C@@H](Cc1ccccc1)C(=O)OC(C)(C)C)C(=O)OC(C)(C)C	.	-2.0	3.7	-10.1%	3.0	-0.5
COc1cc(O)c(C(=O)O)c(CCc2ccccc2)c1	.	7.6	-3.4	-8.9%	-5.9	5.5

Next section.
Structure	gsp agonist	CtBP-E1A blk	D2 ag	gsp antag	D2 PAM	Six1-Eya2 inh
CC1CCCCN1CCNC(=O)c1ccc2c(=O)n(Cc3ccc(Cl)cc3)c(=S)[nH]c2c1 (configuration not stated)	27.0%	-8.3	0.7	-2.4%	-13.4	-10.5
CC(C)C(=O)Nc1ccc2c(c1)nc1n2CCSC1	-0.2%	-0.5	-0.7	5.7%	1.1	-2.3
CC(C)C(=O)NS(=O)(=O)c1ccc(N)cc1	-41.2%[inhibitor]	-0.6	-2.0	3.7%	-0.8	7.7
O=C1OC(Nc2ccc(Br)cn2)c2ccccc21 (configuration not stated)	-9.9%	3.1	-1.8	-6.6%	-18.8	7.6
CC(=O)N1CCN(C2=NC(=O)/C(=C\c3cccs3)S2)CC1	11.4%[15.4 µM]	4.9	-0.8	.	-2.1	0.7
Cc1[nH]c(C)c(S(=O)(=O)N2CCN(c3ccccc3F)CC2)c1C(=O)N1CCCCC1	8.2%	-1.2	-1.4	4.7%	-1.5	4.9
COc1ccccc1Oc1ccc2c(c1)C(=O)N(c1ccc(Br)c3cccnc13)C2=O	12.3%	-3.1	-2.8	0.8%	-17.9	-0.3
N#CC1c2ccccc2C=CN1C(=O)c1ccccc1 (configuration not stated)	-5.1%[15.4 µM]	-4.9	-0.4	2.1%	1.2	4.7

Bioassay records from PubChem.

No enrichment for hits; about 1.4% have a hit in one of these screens.
